CtBP-E1A inh: blocks the CtBP interaction with E1A; 0.49% of 340,000 active; activity change, % (no concentration beside the values); AlphaScreen GST-E1A/His-CtBP binding, 1536-well; active compounds read low; control for the full effect not named in the record; in the data active means activity change below about -65%; inconclusive means about -30% to -65%; inactive means above about -30%; also: % is scaled to controls: 0 for no effect and ±100 for the full control effect
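In 5 uL wells, 23 nL compound meets equimolar GST-E1A and His-CtBP (5X stock 125 nM each) for 2 h, 37 °C. Beads (5X, 50 ug/mL) then 1 h, 37 °C, dark.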
ClpP mod: qHTS Assay for Activators of ClpP; ATP-dependent Clp protease proteolytic subunit (Bacillus subtilis (strain 168)), P80244; purified B. subtilis ClpP, FRET peptide cleavage, 20 min; Potency, µM (titrated, usually from 57.5 µM), for inactives: at the top dose activity change, negative = active; 1.9% of 340,000 active; AID 651965, 2013; active = well fitted falling curve with a large enough effect; inconclusive = small, poorly fitted or top-dose-only effect; inactive = no such curve, though single readings can be large or run the other way; also: potency is read from the fitted curve at half-maximal effect; the source files actives as falling curves though it sought activators and does not explain the sign; nearly all actives have a fitted effect of over 65% in size; many hits overshoot -100%
Target sequence (P80244 whole entry, looked up): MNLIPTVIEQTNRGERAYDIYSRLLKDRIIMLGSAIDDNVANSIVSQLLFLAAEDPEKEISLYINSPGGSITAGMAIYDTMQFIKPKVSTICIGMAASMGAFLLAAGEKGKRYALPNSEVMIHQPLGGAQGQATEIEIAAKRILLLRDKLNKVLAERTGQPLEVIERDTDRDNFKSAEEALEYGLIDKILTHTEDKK
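Purified B. subtilis ClpP, 10 microg/mL final in Tris/HCl pH8 with KCl, BSA, glycerol and Tween-20, cleaved an Abz/nitrotyrosine-quenched decapeptide. Fluorescence (ex 320, em 430) was read at 0 and 20 min at room temperature. Delta was normalized to 5.8 microM ADEP and DMSO/no-enzyme controls.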
Sfp inh: Sfp phosphopantetheinyl transferase inhibition. Q9F4F7. Biochemical Sfp PPTase activity, qHTS. Potency, µM, for the others: max response, negative = inhibition, usual class: inhibitors. 3.5% of 310,000 active; active = well fitted inhibition curve with a large enough effect; inconclusive = small, poorly fitted or top-dose-only effect, or another doubt; inactive = no such curve, though single readings can be large or run the other way;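 also: the enzyme is Sfp with the accession as filed and its product quenches rhodamine fluorescence; potency is read from the fitted curve at half-maximal effect; 0% = enzyme reaction without inhibitor and -100% = no enzyme wells; top concentration of the series not given in the record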
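Buffer: 50 mM Hepes-Na pH 7.6, 10 mM MgCl2, 0.01% Nonidet P-40, 0.01% BSA. Enzyme 15 nM, pre-exposed to compound 15 min; substrates then added and fluorescence change tracked over 30 min.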
gsp antagonist: antagonists of gsp mutant (McCune-Albright syndrome). Potency, µM (doses to about 76.9 µM), inactives show top-dose activity change, negative = inhibition, hits mostly inhibitors. 0.4% of 340,000 active. gsp-mutant cells, cAMP HTRF, 30 min; control for the full effect not named in the record; active = falling curve of any shape with a large fitted effect; inconclusive = falling curve, mostly with a smaller effect; inactive = flat or rising curve; cell line not stated here;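 also: intracellular cAMP measured with PDE inhibitor Ro 20-1724 present during compound exposure; potency is read from the fitted curve at half-maximal effect; % is scaled to controls: 0 for no effect and ±100 for the full control effect; nearly all actives have a fitted effect of over 65% in size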
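HTRF cAMP measurement after 30 min RT detection following 30 min, 37C compound treatment alongside […] (added as 300 uM solution) in G418-selected cells seeded at 2000/well and grown 16–24 h.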
gsp ag: activates gsp, the McCune-Albright syndrome mutation. 0.13% of 340,000 active. Potency, µM (series often up to 76.9 µM), inactives show at the top dose activation (cAMP increase), actives largely listed as activators. gsp mutant cells, cAMP HTRF, 30 min; control for the full effect not named in the record; active = well fitted activation curve with a large enough effect; inconclusive = small, poorly fitted or top-dose-only effect, or another doubt; inactive = no such curve, though single readings can be large or run the other way; cell line not stated here;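 also: phosphodiesterase inhibitor Ro 20-1724 added with compounds to block cAMP breakdown; potency is read from the fitted curve at half-maximal effect; nearly all actives have a fitted effect of over 60% in size; about a fifth of the inactives were tested at one dose only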
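Cells in DMEM/10% FBS with G418 were pretreated with compounds in DMSO plus […] (300 uM stock) for 30 min at 37C. cAMP was measured by HTRF (cAMP-d2 plus anti-cAMP antibody-K) after 30 min at room temperature.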
TRPV1 PAM: enhances activation of the human vanilloid receptor TRPV1 | potentiation, % at 8.33 µM | Q8NER1 | 0.02% of 320,000 active | TRPV1-expressing cells, Fluo-8 calcium influx, capsaicin EC20 potentiation; host cell line not named in the record; control for the full effect not named in the record | AID 540277; active means potentiation above 80%; inconclusive means 30% to 80%; inactive means below 30%; also: 0% is about no effect
Target sequence (Q8NER1 whole entry, looked up): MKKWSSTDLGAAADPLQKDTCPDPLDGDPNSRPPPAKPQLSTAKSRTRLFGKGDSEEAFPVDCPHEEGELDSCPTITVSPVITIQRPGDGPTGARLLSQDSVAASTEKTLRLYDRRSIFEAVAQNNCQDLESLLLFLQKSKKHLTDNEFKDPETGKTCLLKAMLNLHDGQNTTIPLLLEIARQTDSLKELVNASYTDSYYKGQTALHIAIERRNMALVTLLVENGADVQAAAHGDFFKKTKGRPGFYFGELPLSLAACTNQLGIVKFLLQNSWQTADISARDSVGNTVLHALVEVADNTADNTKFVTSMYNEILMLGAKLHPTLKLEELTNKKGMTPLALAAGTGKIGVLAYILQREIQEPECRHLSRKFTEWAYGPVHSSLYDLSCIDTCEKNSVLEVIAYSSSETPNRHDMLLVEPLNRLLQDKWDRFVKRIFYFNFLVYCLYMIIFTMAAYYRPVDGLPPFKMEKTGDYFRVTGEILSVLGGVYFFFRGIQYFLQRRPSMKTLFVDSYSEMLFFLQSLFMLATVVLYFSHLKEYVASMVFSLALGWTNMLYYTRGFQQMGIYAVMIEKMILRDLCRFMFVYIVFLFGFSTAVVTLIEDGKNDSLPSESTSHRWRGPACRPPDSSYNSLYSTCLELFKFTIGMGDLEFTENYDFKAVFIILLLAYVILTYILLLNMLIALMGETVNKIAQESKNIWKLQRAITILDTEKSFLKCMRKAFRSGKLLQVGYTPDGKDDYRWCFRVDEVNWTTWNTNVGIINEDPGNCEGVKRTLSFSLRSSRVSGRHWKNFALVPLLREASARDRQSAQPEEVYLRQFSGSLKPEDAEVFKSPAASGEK
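Cells expressing TRPV1 were dye-loaded with Fluo-8 and read kinetically: 10 s baseline, 3 min after compound (agonist portion), then 2 min after EC20 capsaicin (allosteric enhancer portion). Calcium-bound dye fluorescence at 480/520 nm.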
Menin-MLL FL inh: displaces fluorescein MLL peptide from human menin | FP activity change, % at 61.4 µM | Fluorescence polarization, fluorescein-MLL peptide displacement from menin | 290,000 tested, under 10 active; inconclusive = falling polarisation curve, or a change in total fluorescence; inactive = total fluorescence flat and polarisation flat or rising; no compound was filed as active; the % refers to the polarisation; negative = inhibition;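 also: % of control where 0% means no effect; inhibitors lower the polarisation; unlabelled MLL peptide was the positive control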
The depositor's hits bear a star; ? = inconclusive; / = not tested or not shown; & = joins results of further samples; [ ] = dose if it differs, or a comment.

SMILES	CtBP-E1A inh	ClpP mod	Sfp inh	gsp antagonist	gsp ag	TRPV1 PAM	Menin-MLL FL inh
Cn1nc(C(=O)NCc2ccccc2Cl)c2c1-c1ccccc1S(=O)(=O)C2	1	-3.1%&-18%	6%	-18%	-10%	5	/
CC(C)C[C@H](NC(=O)N1CCn2c1nc1ccccc12)C(=O)N[C@@H](Cc1ccccc1)C(=O)O	4	1.3%	19%	7%	/	-6	0.2
COc1cccc(NCc2nnc(SCC(=O)N(C)C3CCS(=O)(=O)C3)n2C2CCCCC2)c1 (stereo not drawn)	2	0.5%	8%	6%	-4%	8	/
COc1ccccc1CNC(=O)CN1C(=O)N(C)C2(CCCCC2)C1=O	/	2.7%	/	6%	6%	-5	/
CC(=O)c1c(C)[nH]c(C(=O)NCCc2cccc(C)c2)c1C	-3	1.2%	7%	-14%	-4%	-19	1.6
COc1ccc(C2C3=C(CCCC3=O)N(CC(=O)O)C3=C2C(=O)CCC3)cc1Cl	0	/	-4%	4%	25%	-2	?
Cc1cc(C)n(CC(=O)NNC(=O)c2cncc(Br)c2)n1	6	1.5%	/	10%	5%[15.4 µM]	/	/
COCCN(C(=O)CSc1nc2ccccc2c(=O)n1C(C)COC)c1c(N)n(Cc2ccccc2)c(=O)[nH]c1=O (stereo not drawn)	0	/	15%	8%	12%[15.4 µM]	-5	-2.6
CCCn1c(=O)c(C(=O)Nc2ncccc2C)c(O)c2ccccc21	-17	/	8%	-6%	-11%	5	3.0
NC(=O)CC(NC(=O)c1ccc(Br)cc1)c1ccc(N2CCN(c3ccccc3)CC2)c([N+](=O)[O-])c1 (stereo not drawn)	-6	1.4%	-12%	0%	/	21	1.7
Cc1ccccc1C(OCC(O)CN1CCN(CCO)CC1)c1ccccc1 (stereo not drawn)	-12	-3.8%	?	11%	-2%	-10	-4.9
O=S1(=O)N[C@@H](Cc2ccccc2)COc2cc(Br)ccc21	5	3.3%	/	-12%	/	/	/
CCN1CCN(c2ccc(NC(=O)c3ccc([N+](=O)[O-])o3)cc2Cl)CC1	-13	/	13%	2%	-5%[15.4 µM]	7	2.4
O=C(c1ccco1)N1CCN(C(=O)c2cc(-c3ccncc3)nc3ccc(Br)cc23)CC1	-8	-0.8%	/	?	16%	/	/
COc1ccc(N/C(N)=N/c2nc(CSc3ccc(Cl)cc3)cc(=O)[nH]2)cc1	5	-5.3%	17%	-18%	-25%	0	0.8
CCOC(=O)Cn1nc(-c2ccccc2)c2cnc3ccc(C)cc3c21	0	?	-4%	?	-57%[inhibitor]	24	6.8
O=C(CC(Sc1ccccc1)c1cccs1)c1ccco1 (stereo not drawn)	18	-16%	8%	3%	?	-16	-1.3
CCCCCC(=O)N1C[C@@H](O)[C@H](n2cc(C3CC3)nn2)C[C@@H]1c1ccc(Cl)cc1	0	-0.2%	/	/	-23%	/	/
CCc1cc2c(=O)c(-c3cnn(-c4ccccc4)c3)c(C)oc2cc1OCC(=O)Nc1cccc(C)c1	4	-0.9%	4%	?	1%	-2	0.4
CCN(CC)CCN1C(=O)c2ccccc2NC1c1cccc(F)c1 (stereo not drawn)	13	?	9%	12%	-30%	8	-0.1
COc1ccc(CCNC(=O)C2CCN(S(=O)(=O)c3ccc(OC)cc3)CC2)cc1	-4	-0.4%	16%	-9%	?	-21	-6.4
O=C(Nc1ccccc1F)c1cc(S(=O)(=O)N2CCCCC2)cs1	2	-0.7%	11%	-2%	3%	-3	-1.1
CCN(CC)S(=O)(=O)c1ccc2c(c1)c(=O)c(C(=O)N1CCN(c3ccccc3)CC1)cn2C	-10	-3.7%	-8%	7%	?	1	-2.5
COc1ccccc1NS(=O)(=O)c1cccc(NC(=S)NCCN2CCOCC2)c1	3	-1.8%	20%	1%	16%[15.4 µM]	-1	5.7
O=C(NCc1ccc(Cl)cc1)C(=O)NCC1CCCN1S(=O)(=O)c1cccs1 (stereo not drawn)	-1	-1.0%	/	7%	-9%	7	/

Additional structures
SMILES	CtBP-E1A inh	ClpP mod	Sfp inh	gsp antagonist	gsp ag	TRPV1 PAM	Menin-MLL FL inh
CC(C)N(C(=O)CSc1nnc(NC(=O)c2ccco2)s1)C(C)C	/	0.2%	32%[activator]	-11%	-145%[inhibitor]	2	0.1
C/C(=N\NC(=O)CCc1ccccc1)C1C(=O)c2ccccc2C1=O	5	1.2%	25%	-26%	-5%[15.4 µM]	8	3.1
CCc1nn(C(C)C(=O)NC2CCCCCC2)c(=O)c2cc3occc3n12 (stereo not drawn)	1	-3.3%	15%	0%	?	7	/
Cc1cc(C)cc(NC(=O)C(Sc2nnc(C)c(=O)[nH]2)c2ccccc2)c1 (stereo not drawn)	-10	-2.9%	2%	-7%	-7%	6	3.4
C=CCn1c(=O)c2ccc(C(=O)NCc3ccccc3)cc2n(Cc2ccccc2Cl)c1=O	0	-3.3%	6%	-14%	18%	-3	0.5
Cc1ccccc1NC(=O)Cn1nnc(-c2ccc(CN3CCC(C)CC3)cc2)n1	/	-1.8%	-15%	7%	7%	-22	-10.0
O=C(c1cnccn1)N1CCN(S(=O)(=O)c2ccc3ccccc3c2)CC1	2	0.2%	9%	1%	-33%[inhibitor]	-8	4.4
CCCCN1CC(=O)N2[C@@H]3c4cc(OC)ccc4OC[C@@H]3[C@H](C(=O)OCC)[C@]2(C)C1=O	5	-0.6%	/	9%	/	/	/
O=C(CSc1ccc2c(c1)OCCO2)NCc1ccccc1	/	0.9%	3%	-14%	-1%	-15	0.0
Cc1cccc(N(C)Cc2nnc(-c3cccc(Br)c3)o2)c1	7	0.3%	-15%	-9%	-6%	7	-1.2
C#CCNC(=O)C1=C[C@H](C)C[C@H](OCc2ccc(CO)cc2)O1	/	-1.8%	/	6%	-16%	/	/
CCN(CC)CCNc1cc(C)c(C#N)c2nc3ccccc3n12	2	4.0%	15%	-8%	-12%	10	-2.8
CCN(CC(=O)Nc1c(F)cccc1F)C(=O)CNC(=O)c1sc2ccccc2c1Cl	6	-6.9%	/	?	?	5	/
c1ccc(COc2ccc(CNn3cnnc3)cc2)cc1	8	0.0%	4%	4%	-45%	11	3.3
C=CCn1c(SCc2ccc(C(=O)OC)cc2)nnc1-c1sc(N)nc1C	14	-1.8%	3%	-2%	-5%	2	-0.2
CCOCCCNC(=O)C1CC(=O)N(CCc2ccccc2)C1 (stereo not drawn)	4	0.2%	8%	5%	-52%[inhibitor]	-1	3.7
Cc1csc2ncc(C(=O)Nc3ccc4c(c3)OCCO4)c(=O)n12	0	-5.7%	14%	-3%	?	-15	0.5
CCc1ccc(NC(=O)N(CCOC)C2CCN(C(C)=O)CC2)cc1	10	-3.0%	9%	-9%	-21%	4	1.9
COc1ccc(NC(=O)CSc2nnc(CNC(=O)c3ccco3)n2-c2ccccc2OC)cc1	-5	0.6%	4%	-5%	3%	/	4.3
Cc1ccc(NC(=O)CN2CCN(Cc3ccccc3)CC2)cc1Cl	0	0.5%	/	-26%	4%[15.4 µM]	/	/
Brc1ccc(CSc2nccn2-c2ccccc2)cc1	-21	-2.8%	-5%	-6%[15.4 µM]	6%	/	1.3
Cc1ccc(CNC(=O)C(OC(=O)c2cccs2)C(C)C)cc1 (stereo not drawn)	-5	/	2%	1%	?	-11	-2.3
COC1=C(N)C(=O)c2nc(C)ccc2C1=O	-8	-5.5%	/	4%	2%	/	/
CCCc1c(O)nc(SC2CC(=O)N(c3ccc(C)c(Cl)c3)C2=O)[nH]c1=O (stereo not drawn)	5	-15%	/	-12%	-5%	/	/
O=C(CN1CCCC(O)C1)N1c2ccccc2Sc2ccc(C(F)(F)F)cc21 (stereo not drawn)	4	3.0%	?	-5%	-3%	-11	12
CCOC(=O)C1=C(c2ccccc2)N=c2s/c(=C\c3ccc(O)cc3)c(=O)n2C1c1cccs1 (stereo not drawn)	-13	-1.6%	-6%	-10%	26%	-14	?
O=C(Nc1nc2ccccc2c2nc3ccccc3n12)c1ccc(F)cc1	/	/	9%	/	/	3	3.9

Grouped by structure, those above containing bromine
SMILES	CtBP-E1A inh	ClpP mod	Sfp inh	gsp antagonist	gsp ag	TRPV1 PAM	Menin-MLL FL inh
Cc1cc(C)n(CC(=O)NNC(=O)c2cncc(Br)c2)n1	6	1.5%	/	10%	5%[15.4 µM]	/	/
NC(=O)CC(NC(=O)c1ccc(Br)cc1)c1ccc(N2CCN(c3ccccc3)CC2)c([N+](=O)[O-])c1 (stereo not drawn)	-6	1.4%	-12%	0%	/	21	1.7
O=S1(=O)N[C@@H](Cc2ccccc2)COc2cc(Br)ccc21	5	3.3%	/	-12%	/	/	/
O=C(c1ccco1)N1CCN(C(=O)c2cc(-c3ccncc3)nc3ccc(Br)cc23)CC1	-8	-0.8%	/	?	16%	/	/
Cc1cccc(N(C)Cc2nnc(-c3cccc(Br)c3)o2)c1	7	0.3%	-15%	-9%	-6%	7	-1.2
Brc1ccc(CSc2nccn2-c2ccccc2)cc1	-21	-2.8%	-5%	-6%[15.4 µM]	6%	/	1.3

An excerpt taken from the entries so far:
SMILES	CtBP-E1A inh	ClpP mod	Sfp inh	gsp antagonist	gsp ag	TRPV1 PAM	Menin-MLL FL inh
c1ccc(COc2ccc(CNn3cnnc3)cc2)cc1	8	0.0%	4%	4%	-45%	11	3.3
C=CCn1c(SCc2ccc(C(=O)OC)cc2)nnc1-c1sc(N)nc1C	14	-1.8%	3%	-2%	-5%	2	-0.2
CCOCCCNC(=O)C1CC(=O)N(CCc2ccccc2)C1 (stereo not drawn)	4	0.2%	8%	5%	-52%[inhibitor]	-1	3.7
Cc1csc2ncc(C(=O)Nc3ccc4c(c3)OCCO4)c(=O)n12	0	-5.7%	14%	-3%	?	-15	0.5

Screening data (PubChem BioAssay)
